PrP 5UTR inh = suppresses PrP 5' UTR mRNA reporter expression; inhibition, % (concentration not given with the values); hit rate 0.35% among 340,000; cell-based PrP 5' UTR mRNA reporter, plate reader; AID 488862;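 active = every replicate at 50% or more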;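 note: 0 = median of the neutral control wells; tested in H4 reporter cells; numbers are from one replicate; inactives centre near -14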
BJeLR lethal = kills HRASV12-expressing BJeLR cells. BJeLR (HRASV12) viability, CellTiter-Glo ATP luminescence, 48 h; reference of the scale not given here. inhibition, % (no concentration beside the values). hit rate 0.17% among 300,000;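 active = replicate mean above 50%; inconclusive = above 50% but judged a plate artefact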;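 note: 50 nL library stock added to about 25 µL; numbers are from one replicate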
RN4220 kill = kills Staphylococcus aureus RN4220; S. aureus RN4220 growth, OD600, 16 h; inhibition, % (no concentration beside the values); hit rate 0.33% among 330,000; AID 1259311;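 active = z-score of -3 or lower and OD600 up to 0.18 on both plates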;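 note: plate controls were untreated cells for no effect and reference antibiotic for full effect; stock transfer was 100 nL into about 80 µL; one replicate is shown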
Bead autofluor = counter-screen for toxin protease inhibitors: compound fluorescence. hit rate 3.1% among 360,000. fluorescence intensity (test concentration not listed). compound autofluorescence counterscreen, microsphere flow cytometry; stronger effect = higher value;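 active = at least 3 SD above the mean of all compounds, about 16000 in these data; inconclusive = too few beads counted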;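 note: 100 nL of 1 mM stock went into each well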
Sa ugtP lethal = growth inhibition of S. aureus ugtP deletion strain | S. aureus RN4220 ugtP deletion, OD600 growth, 16 h; some inactives read as strong as hits | growth inhibition, % (concentration not given with the values) | hit rate 0.54% among 330,000;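 active = z-score under -3 and OD600 up to 0.15 on both plates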;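 note: plate controls were untreated wells for no effect and antibiotic for full effect; wells of about 80 µL received 100 nL stock; the first replicate is given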
Mtb hypoxia rep = reduces hypoxia-regulated biosensor signal in M. tuberculosis | fluorescence inhibition, % (concentration not given with the values) | hit rate 0.1% among 300,000 | M. tuberculosis hypoxia-regulated fluorescent reporter, fluorescence;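 active = 35 to 45% if threefold the growth effect, above 45% if 1.5-fold the growth effect; inactive = the rest, general growth blockers included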;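 note: wells of about 50 µL received 100 nL stock; 0% = vehicle wells and 100% = reference inhibitor wells; whole bacteria with a GFP reporter of the hypoxia response; strong numbers were not always called active; many hits fall short of the cut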
Mtb hypoxia rep growth = further read-out of Mtb hypoxia rep, marked with its call; growth inhibition, %; measured here: M. tuberculosis growth (absorbance);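 0% = vehicle and 100% = reference antibiotic; read after six days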
* = called active by the depositor; ? = inconclusive; nt = not tested or not shown. An unsorted share of the library. Share with any hit: about 4%.

The line under a structure holds: PrP 5UTR inh | BJeLR lethal | RN4220 kill | Bead autofluor | Sa ugtP lethal | Mtb hypoxia rep | Mtb hypoxia rep growth
- COc1cc2c(cc1OC)CN(S(=O)(=O)c1ccc3c(c1)OCCO3)CC2
 : -12 | -4 | 2.1 | ? | 3 | 20 | 4
- COc1cccc(-n2cc(CN(C)Cc3nc(Cc4cccc(F)c4)no3)cn2)c1
 : 10 | 4 | 16 | 4314 | 5 | -5 | 0
- O=C(C1CC(=O)N(c2ccccc2)C1)N1CCCCCC1 (configuration not stated)
 : -23 | -1 | -0.1 | 5403 | 0 | -5 | 0
- COc1cccc(-c2csc(N3CCN(CC(=O)Nc4ccc5c(c4)OCO5)CC3)n2)c1
 : -6 | -2 | 2.9 | 8496 | -2 | 4 | 6
- CN1C(=CC=C(C#N)C(=O)Nc2ccc(Cl)cc2)C(C)(C)c2ccccc21
 : nt | nt | 5.0 | nt | 6 | -1 | -2
- COc1ccccc1/C=C/C=NNC(=O)CCn1cnc2ccccc21
 : nt | nt | -0.2 | nt | 0 | 4 | 12
- COc1ccc(C2c3ccc4ccccc4c3Oc3ncn(CCN4CCOCC4)c(=N)c32)cc1OC (configuration not stated)
 : -4 | 5 | -1.3 | 3476 | -4 | 2 | 5
- O=C(c1cccc(N2C(=O)C3CC=CCC3C2=O)c1)N1CCCc2ccccc21 (configuration not stated)
 : -42 | -3 | 17 | 3381 | 9 | -7 | 6
- COC(=O)c1c(NS(=O)(=O)c2ccccc2)csc1C
 : -10 | 0 | 4.4 | 5288 | 2 | -1 | -7
- CCCc1c(C(=O)NN=C(C)c2ccncc2)nnn1-c1nonc1N
 : nt | nt | 3.9 | nt | 14 | 15 | -1
- Cc1cc(C)nc(N(C#N)CC(=O)Nc2ccccc2)n1
 : 2 | 10 | -5.6 | 3461 | -8 | nt | nt
- COc1ccc(OC)c(NC(=O)COC(=O)c2ccc(OC)c(S(=O)(=O)N3CCCC3)c2)c1
 : -4 | nt | 0.7 | 3289 | 0 | -3 | 6
- O=[N+]([O-])c1cc(C(F)(F)F)ccc1NCC1CCCO1 (configuration not stated)
 : -24 | -16 | 5.3 | 3747 | 11 | 7 | 7
- CC(=O)N1CCN(C(=S)NCc2ccccc2)CC1
 : -14 | 1 | -3.1 | 2295 | 1 | 0 | 7
- Cc1ccc(C2=NCCn3nc4cc(C(F)(F)F)ccc4c32)cc1
 : -23 | nt | -2.4 | 4049 | -2 | 4 | 6
- Cc1ccc(C(C(=O)NC2CCCCC2)N(Cc2ccco2)C(=O)Cn2cnc3ccccc32)cc1 (configuration not stated)
 : 6 | 0 | 6.8 | 3404 | 4 | nt | nt
- CCN(CC(=O)Nc1c(F)cccc1F)C(=O)c1ccc(-c2ccccc2)cc1
 : -9 | 10 | 0.8 | nt | 5 | 10 | 0
- O=[N+]([O-])c1cccc(-c2nnc(-c3ccc4c(c3)OCO4)o2)c1
 : -75 | 2 | 12 | 7283 | -7 | 1 | -3
- O=C(CSc1nnnn1-c1ccccc1)Nc1ncc(Cc2cc(Cl)ccc2Cl)s1
 : -23 | -5 | 3.0 | 8593 | 3 | 15 | 17
- O=Cc1c(C(=O)O)n(Cc2ccccc2F)c2ccccc12
 : 9 | -3 | -1.5 | 3933 | -1 | -18 | 1
- COc1cccc(C(=O)Nc2cccc(OCC(=O)O)c2)c1
 : nt | 5 | 9.1 | 11495 | 3 | 0 | 0
- O=C(NC1CCCCCC1)C1Cc2ccccc2CN1C(=O)c1ccco1 (configuration not stated)
 : -19 | 5 | 2.7 | 4991 | 3 | 5 | 4
- CCC(=O)N1N=C2CC(C)(C)OCC2C1c1ccccc1 (configuration not stated)
 : -13 | 8 | 6.1 | 6567 | 10 | 16 | 3
- CN1CCN(c2nc(-c3ccccn3)nc3ccccc23)CC1
 : 0 | 16 | 3.4 | 23212* | 2 | 4 | 7
- Cn1cc(C[C@H](NC(=O)OC(C)(C)C)C(=O)N[C@@H](CO)Cc2ccccc2)c2ccccc21
 : -18 | -4 | nt | 4152 | nt | nt | nt
- CC1(C)CC[C@]2(C(=O)O)CC[C@]3(C)C(=CCC4[C@@]5(C)CC[C@H](O)C(C)(C)C5[C@H](O)C[C@]43C)[C@@H]2C1 (some centres not stated)
 : nt | 6 | 37 | nt | 40 | nt | nt
- CCCN(C(=O)c1c(CC)noc1C)c1c(N)n(Cc2ccccc2)c(=O)[nH]c1=O
 : -14 | 9 | 4.7 | 6133 | 2 | 8 | 7
- CC(=O)c1csc(COc2ccccc2)n1
 : -25 | -4 | 1.2 | 3999 | 1 | 3 | 3
- CC(=O)c1ccc(NC(=O)N2C3CCC2CC(O)(c2cccnc2)C3)cc1 (configuration not stated)
 : 14 | -2 | 7.2 | 4595 | 5 | 12 | 4
- CCCn1cnc2c(=O)oc3ccccc3c21
 : 1 | 2 | -1.1 | 3519 | 6 | nt | nt

The line under a structure holds: PrP 5UTR inh | BJeLR lethal | RN4220 kill | Bead autofluor | Sa ugtP lethal | Mtb hypoxia rep | Mtb hypoxia rep growth
- O=c1nc(/C=C/c2ccc(Cl)cc2Cl)cc(C(F)(F)F)[nH]1
 : -7 | -1 | 4.3 | nt | -7 | 9 | 17
- COc1ccccc1C(C[N+](=O)[O-])c1c(N)n(C)c(=O)n(C)c1=O (configuration not stated)
 : nt | 3 | 9.6 | 4380 | -16 | 19 | 24
- CC(C)CCC(O)(CCC(C)C)C(=O)NNc1ccccc1
 : 1 | -2 | 0.7 | 2287 | -3 | -7 | 5
- N#Cc1cc(-c2ccccc2)[nH]c1-c1nccc2ccccc12
 : -8 | -5 | 7.4 | 3616 | -4 | 7 | 1
- Cc1cnnc2c1-c1nonc1CC2
 : -25 | 3 | -6.3 | 2452 | 7 | nt | nt
- O=C(Nc1ccc(S(=O)(=O)Nc2ncccn2)cc1)c1cccc(Br)c1
 : -24 | -4 | 3.6 | 3645 | 7 | 20 | 10
- Cc1ccc(S(=O)(=O)N(C)c2ccc(OC(=O)c3ccc(N4CCCC4=O)cc3)cc2)cc1
 : 8 | 6 | -1.4 | 5724 | 1 | 3 | 7
- Cc1cc(C)c(S(=O)(=O)N(CC(=O)O)C2CCCCC2)c(C)c1
 : -11 | 1 | 18 | 3740 | -3 | nt | nt
- O=C(Cc1ccc(-c2ccccc2)cc1)NC(c1ccccc1)c1ccccc1
 : -17 | 0 | 2.0 | 2176 | 9 | 9 | 1
- COCCNC(=O)[C@@]1(Cc2ccccc2)C=C[C@@H](C)N1C(C)=O
 : -6 | -1 | nt | 4161 | nt | nt | nt
- O=C(NC1CCN(Cc2ccccc2)CC1)c1cc(S(=O)(=O)N2CCOCC2)ccc1Cl
 : -13 | nt | -3.6 | 3007 | 5 | 7 | 0
- S=C(NCC(c1ccco1)N1CCCC1)Nc1ccccc1 (configuration not stated)
 : 2 | -1 | 3.0 | 4599 | 4 | 1 | 1
- C/C(CC(=O)Nc1ccc(C)c(Cl)c1)=N\NC(=O)Cc1cnc(N)s1
 : -11 | -5 | nt | 4611 | nt | nt | nt
- O=C(Cc1ccc(Cl)cc1)NNC(=O)C1CC=CCC1C(=O)O (configuration not stated)
 : -6 | 6 | nt | 4485 | nt | nt | nt
- Cc1ccc(NC(=O)COC(=O)CN2C(=O)C3CCCCC3C2=O)cc1S(=O)(=O)N1CCOCC1 (configuration not stated)
 : 5 | -13 | 3.6 | 1919 | 3 | 5 | 9
- O=C(CC(=O)N/N=C/c1c(F)cccc1Cl)NCCc1ccccc1
 : -23 | 0 | nt | 4034 | nt | nt | nt
- Cc1cc(S(=O)(=O)N2CCN=C2c2ccccc2)ccc1F
 : -42 | 5 | 3.3 | 8219 | 9 | 5 | 2
- CCOC(=O)N1CCN(C(=O)c2ccc3nc(-c4ccccc4)c(-c4ccccc4)nc3c2)CC1
 : -16 | -4 | -0.5 | 4328 | 6 | 5 | 1
- COc1ccc(C=NNC(=O)c2nn(C)cc2Br)cc1CSCc1ccco1
 : nt | nt | -0.9 | nt | 10 | 3 | -2
- C=CCN1C(=O)c2ccccc2Sc2ccc(C(=O)NCC(OC)OC)cc21
 : -15 | 6 | 0.2 | 3586 | -1 | -13 | 8
- C=CCn1c(SCC(=O)c2cccs2)nc2sc(C)cc2c1=O
 : -15 | -7 | 6.3 | 9836 | 5 | 11 | -1
- COc1ccccc1C(=O)OCC(=O)NC(C)CCc1ccccc1 (configuration not stated)
 : nt | 1 | 1.5 | 3341 | 17 | 2 | -2
- Cc1nc2ccccc2nc1Nc1cccc(Cl)c1
 : -20 | 2 | -3.6 | 2922 | 3 | -2 | -8
- Cc1nn(CC(=O)Nc2ccc(Cl)c(S(=O)(=O)N(C)C)c2)c(C)c1[N+](=O)[O-]
 : -21 | -7 | 0.9 | 2476 | 8 | 5 | 2
- COCCNC(=O)c1cnn2c(C(F)F)cc(-c3ccccc3)nc12
 : -20 | nt | 1.6 | 1938 | 8 | -1 | 15
- CCC1CCCCN1C(=O)COC(=O)COc1ccc(Br)cc1 (configuration not stated)
 : 1 | nt | 9.4 | nt | 7 | 14 | 7
- Cc1cccc(C2CN(C)CCc3c2cc(O)c(O)c3Cl)c1 (configuration not stated)
 : -7 | nt | 5.4 | 6222 | -8 | 6 | -3
- Cc1cc(C)c2cc(C(=O)N3CCC(Cc4ccccc4)CC3)[nH]c2c1
 : -23 | 8 | 1.8 | 6284 | -12 | -3 | -1
- O=C(NCc1ccc(F)cc1)C(=O)NCC(c1ccco1)N1CCOCC1 (configuration not stated)
 : -18 | 18 | -0.6 | 6218 | -6 | 0 | -1
- CCOc1ccc(C(C)=O)cc1CN1C(=O)NC2(CCCCCC2)C1=O
 : 9 | -2 | 6.2 | 3163 | 8 | 6 | -3

Some of the entries so far, as a markdown table.
| canonical_smiles | PrP 5UTR inh | BJeLR lethal | RN4220 kill | Bead autofluor | Sa ugtP lethal | Mtb hypoxia rep | Mtb hypoxia rep growth |
| --- | --- | --- | --- | --- | --- | --- | --- |
| COc1ccccc1C(=O)OCC(=O)NC(C)CCc1ccccc1 (configuration not stated) | nt | 1 | 1.5 | 3341 | 17 | 2 | -2 |
| Cc1nc2ccccc2nc1Nc1cccc(Cl)c1 | -20 | 2 | -3.6 | 2922 | 3 | -2 | -8 |
| Cc1nn(CC(=O)Nc2ccc(Cl)c(S(=O)(=O)N(C)C)c2)c(C)c1[N+](=O)[O-] | -21 | -7 | 0.9 | 2476 | 8 | 5 | 2 |
| COCCNC(=O)c1cnn2c(C(F)F)cc(-c3ccccc3)nc12 | -20 | nt | 1.6 | 1938 | 8 | -1 | 15 |
| CCC1CCCCN1C(=O)COC(=O)COc1ccc(Br)cc1 (configuration not stated) | 1 | nt | 9.4 | nt | 7 | 14 | 7 |
| Cc1cccc(C2CN(C)CCc3c2cc(O)c(O)c3Cl)c1 (configuration not stated) | -7 | nt | 5.4 | 6222 | -8 | 6 | -3 |
| Cc1cc(C)c2cc(C(=O)N3CCC(Cc4ccccc4)CC3)[nH]c2c1 | -23 | 8 | 1.8 | 6284 | -12 | -3 | -1 |
| O=C(NCc1ccc(F)cc1)C(=O)NCC(c1ccco1)N1CCOCC1 (configuration not stated) | -18 | 18 | -0.6 | 6218 | -6 | 0 | -1 |
| CCOc1ccc(C(C)=O)cc1CN1C(=O)NC2(CCCCCC2)C1=O | 9 | -2 | 6.2 | 3163 | 8 | 6 | -3 |

Next section:
The line under a structure holds: PrP 5UTR inh | BJeLR lethal | RN4220 kill | Bead autofluor | Sa ugtP lethal | Mtb hypoxia rep | Mtb hypoxia rep growth
- Cc1cc(N2CCN(C)CC2)nc2ccc(NC(=O)c3ccc4c(c3)OCO4)cc12
 : -70 | nt | 5.3 | 3854 | -10 | 3 | 22
- COc1ccccc1-c1nnc(NC(=O)OCC(C)C)s1
 : -19 | -5 | -1.9 | 4706 | -3 | nt | nt
- Nc1ccccc1Nc1cc(-c2ccccc2)[nH]n1
 : -52 | -9 | 74 | 2574 | 43 | 16 | 9
- C=CCN(c1ccc(C(=O)Nc2cccc(C)c2)cc1)S(C)(=O)=O
 : -22 | -4 | -0.4 | 4375 | 1 | 0 | 9
- CCCCNCc1cc(Br)c(OCC(=O)N2CCOCC2)c(OC)c1
 : -27 | 11 | -0.4 | 16518* | 2 | 5 | -5
- Cc1ccc2nc(Nc3nc(CSc4nc5ccccc5s4)cc(=O)[nH]3)nc(C)c2c1
 : -7 | -16 | 8.4 | 2270 | -1 | 5 | 2
- CCN1CCN(Cc2c(O)ccc3c(C)cc(=O)oc23)CC1
 : -14 | -11 | -0.4 | 3661 | 3 | -10 | 4

From PubChem
